# Mtb hypoxia inh = PubChem AID 1159583. M. tuberculosis hypoxia-regulated fluorescent reporter, fluorescence. 0.1% of 300,000 active. fluorescence inhibition, % (no concentration beside the values);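 active = 35 to 45% if threefold the growth effect, above 45% if 1.5-fold the growth effect; inactive = the rest, general growth blockers included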;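 also: wells of about 50 µL received 100 nL stock; 0% = vehicle wells and 100% = reference inhibitor wells; whole bacteria with a GFP reporter of the hypoxia response; strong numbers were not always called active; many hits fall short of the cut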
# Sa RN4220 lethal = growth inhibition of S. aureus RN4220, primary screen, OD600 | 0.33% of 330,000 active | 16 h | inhibition, % (no concentration beside the values) | AID 1259311, 2017;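 active = z-score of -3 or lower and OD600 up to 0.18 on both plates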;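 also: plate controls were untreated cells for no effect and reference antibiotic for full effect; stock transfer was 100 nL into about 80 µL; one replicate is shown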
# ugtP null kill = growth inhibition of ugtP-null S. aureus, primary screen, RN4220 ugtP deletion, OD600; 16 h; some inactives read as strong as hits; growth inhibition, % (test concentration not listed); 0.54% of 330,000 active;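 active = z-score under -3 and OD600 up to 0.15 on both plates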;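 also: plate controls were untreated wells for no effect and antibiotic for full effect; wells of about 80 µL received 100 nL stock; the first replicate is given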
# Bead autofluor = counter-screen for toxin protease inhibitors: compound fluorescence. fluorescence intensity (concentration not given with the values). compound autofluorescence counterscreen, microsphere flow cytometry; stronger effect = higher value. 3.1% of 360,000 active;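 active = at least 3 SD above the mean of all compounds, about 16000 in these data; inconclusive = too few beads counted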;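 also: 100 nL of 1 mM stock went into each well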
# PrP 5UTR inh = inhibition of PrP 5' UTR reporter expression; inhibition, % (test concentration not listed); cell-based PrP 5' UTR mRNA reporter, plate reader; 0.35% of 340,000 active; AID 488862, 2010;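 active = every replicate at 50% or more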;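 also: 0 = median of the neutral control wells; tested in H4 reporter cells; numbers are from one replicate; inactives centre near -14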
# BJeLR lethal = MLPCN primary cell-based screen for lethality selective to Ras in HRASV12 cells; BJeLR (HRASV12) viability, CellTiter-Glo ATP luminescence, 48 h; reference of the scale not given here; inhibition, % (no concentration beside the values); 0.17% of 300,000 active; AID 1554, 2009;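 active = replicate mean above 50%; inconclusive = above 50% but judged a plate artefact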;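 also: 50 nL library stock added to about 25 µL; numbers are from one replicate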
# Mtb hypoxia inh growth = recorded beside Mtb hypoxia inh, whose call it bears; growth inhibition, %; measured here: M. tuberculosis growth (absorbance);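 0% = vehicle and 100% = reference antibiotic; read after six days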
# * hit, by the source's call; u = inconclusive; x = no result given; & = joins results of further samples.
SMILES,Mtb hypoxia inh,Mtb hypoxia inh growth,Sa RN4220 lethal,ugtP null kill,Bead autofluor,PrP 5UTR inh,BJeLR lethal
CC[C@@]12C(=O)N(c3cccc(Br)c3)C(=O)N1[C@H](c1ccc(F)cc1)[C@@H]1C(=O)N(C3CCCCC3)C(=O)[C@@H]12,x,x,x,x,3822,-8,3
CCN1C(=O)c2cccc3c(S(=O)(=O)Nc4ccccn4)ccc1c23,7,7,4.2,-7,3885,-40,-15
CC(OC(=O)Cn1[nH]c(=O)c2ccccc2c1=O)C(=O)Nc1ccccc1[N+](=O)[O-] (configuration not stated),9,3,3.3,4,5814,-5,10
COc1cccc(N2CCN(C(=O)CN3C(=O)NC(C)(c4ccc5ccccc5c4)C3=O)CC2)c1 (configuration not stated),0,6,-3.7,7,5128,-6,11
Cc1nc2scc(C)n2c(=O)c1S(=O)(=O)N1CCN(c2cccc(C(F)(F)F)c2)CC1,7,-1,-1.8,4,3490,-9,-2
COc1ccccc1CNC(=O)c1ccc(Br)o1,x,x,7.8,6,4179,-22,2
CCN(CC)c1ccc(-c2n[nH]c(=S)n2-c2ccccc2)cc1,5,0,-0.6,0,3393,-26,-1
COCCNC(=O)c1ccc2c(c1)ncn2-c1ccc(C)c(Cl)c1,-4,1,-2.6,5,3765,-20,-14
COc1ccc(NC(=O)c2ccco2)cc1NC(=O)c1ccc(C)cc1,6,11,3.0,-1,8564,-26,-15
CC(=O)N1c2ccc(S(=O)(=O)N3CCC(C(=O)NC4CCC(C)CC4)CC3)cc2CC1C (configuration not stated),4,6,1.5,3,5008,-9,7
Cc1ccc(C=N/N=C2/NC(=O)C(CC(=O)N3CCOCC3)S2)cc1 (configuration not stated),17,7,2.7,-2,x,x,x
FC(F)Sc1ccc(NC(=S)NCC2CCCCC2)cc1,-2,16,99*,100*,11327,-24,15

# No new results follow: entries from further up.
SMILES,Mtb hypoxia inh,Mtb hypoxia inh growth,Sa RN4220 lethal,ugtP null kill,Bead autofluor,PrP 5UTR inh,BJeLR lethal
Cc1ccc(C=N/N=C2/NC(=O)C(CC(=O)N3CCOCC3)S2)cc1 (configuration not stated),17,7,2.7,-2,x,x,x
FC(F)Sc1ccc(NC(=S)NCC2CCCCC2)cc1,-2,16,99*,100*,11327,-24,15

# Three entries out of the list, arranged by molecular weight, rising:
SMILES,Mtb hypoxia inh,Mtb hypoxia inh growth,Sa RN4220 lethal,ugtP null kill,Bead autofluor,PrP 5UTR inh,BJeLR lethal
COc1ccc(NC(=O)c2ccco2)cc1NC(=O)c1ccc(C)cc1,6,11,3.0,-1,8564,-26,-15
CCN1C(=O)c2cccc3c(S(=O)(=O)Nc4ccccn4)ccc1c23,7,7,4.2,-7,3885,-40,-15
Cc1nc2scc(C)n2c(=O)c1S(=O)(=O)N1CCN(c2cccc(C(F)(F)F)c2)CC1,7,-1,-1.8,4,3490,-9,-2

# Later entries:
SMILES,Mtb hypoxia inh,Mtb hypoxia inh growth,Sa RN4220 lethal,ugtP null kill,Bead autofluor,PrP 5UTR inh,BJeLR lethal
CCOC(=O)NNC(=O)c1[nH]c2ccc(Br)cc2c1-c1ccccc1,-15,3,2.1,-5,2933,-14,2
Cc1ccc(CN(C(=O)CNC(=O)c2cccs2)C(C(=O)NCC2CCCO2)c2ccccc2)cc1 (configuration not stated),10,13,3.5,1,9449,-7,-4
Cc1cc(C)n2c(Br)c(CN3CC4CC(C3)c3cccc(=O)n3C4)nc2n1 (configuration not stated),0,3,2.3,2,6270,-5,-2
CCOc1ccc(NC(=O)CSC(N)=O)cc1,2,12,-24,4,2868,2,6
CCOC(=O)C1=C(CNCc2ccccc2Cl)NC(=O)NC1c1ccc2c(c1)OCO2 (configuration not stated),-35,-18,1.8,-11,3321,2,9
Cc1ccc(C(=O)c2cncc(Br)c2)cc1,24,29,2.9,5,4448,-22,8
CCOC(=O)c1cc(NC(=O)c2cccs2)ccc1N1CCOCC1,7,-1,-0.9,2,4337,-17,10
COC(=O)CSC(C)C(=O)Nc1nnc(C(C)C)s1 (configuration not stated),1,4,1.7,1,2285,-12,0
Cc1ccc(C(=O)NC2CCCCCC2)cc1N1CCCC1=O,x,x,2.9,6,2986,-18,-5
Cc1[nH]ncc1-c1nc2ccccc2[nH]1,-6,-5,5.9,12,3146,-17,2
Cc1cc(C)c(S(=O)(=O)N2CCN(C(=O)c3cc4ccccc4oc3=O)CC2)c(C)c1,6,6,4.3,6,4069,-20,x
COc1ccc(NC(=O)CSc2nnnn2C2CCCCC2)cc1,8,4,4.4,5,3223,-16,1
COc1cccc(CN(C)C(=O)c2cc(S(=O)(=O)N3CCCC3)ccc2C)c1OC,0,5,4.5,2,3421,-23,x
COCCNC(=O)c1cc2c3ccccc3n(C)c2s1,7,13,0.1,-7,12804,-4,-6
CCn1c(=O)cc(SCC(=O)N2CCN(c3ccccc3OC)CC2)c2ccccc21,4,2,0.5,5,11192,-21,9
CCOC(=O)c1c(C)[nH]c(C(=O)COc2ccc3c(c2)OCO3)c1C,x,x,0.1,0,2509,11,-5
Cc1cc(C(=O)N2CCN(c3ccccc3)CC2)c(C)o1,6,2,3.6,9,17012*,-7,5
CSc1nccc(Oc2ccccc2Cl)n1,4,-6,5.1,6,4289,x,-1
O=C(N/N=C/c1ccccn1)c1ccc(Br)cc1,x,x,x,x,2318,-41,-7
CC(C)C(NC=C1C(=O)OC(C)(C)OC1=O)C(=O)O (configuration not stated),11,5,7.2,14,16608*,-13,-2
CCOc1ccc(/C=C/C2=Cc3c(sc(NC(=O)CSc4n[nH]c(N)n4)c3C#N)C(C)(C)C2)cc1,9,10,-2.1,5,7061,-27,-9
CCCNC(C)C(=O)Nc1ccccc1C (configuration not stated),8,0,7.4,-1,5144,-11,2
Cc1ccc(CNc2ccc(N3CCOCC3)cc2)s1,6,9,2.7,-1,3025,-71,2
Cc1ccc(S(=O)(=O)N(C)C)cc1NC(=O)COC(=O)c1ccc2ccccc2n1,11,-2,2.6,-1,6523,-12,x
COc1ccc(CSCC(=O)Nc2ccccc2)cc1[N+](=O)[O-],4,9,4.3,6,3783,-15,2
Cn1c(-c2cc3ccc(OC(=O)C(C)(C)C)cc3oc2=O)nc2ccccc21,0,8,-2.6,-11,16715*,-26,-4
CC(C)(C)C(=O)N1CCN(C(c2ccccc2)c2ccccc2)CC1,17,7,-5.9,28,3458,-22,0
CCCOc1ccc(N2C(=O)CC(NCc3ccc(S(N)(=O)=O)cc3)C2=O)cc1 (configuration not stated),5,2,4.8,7,4201,-18,-6
Cc1nc(CCNC(=O)CC2C(=O)NCCN2CC(C)(C)C)nc2c1CCC2 (configuration not stated),8,2,0.1,1,4448,-10,5
CC(/C=N/NC(=O)c1cc(-c2cccn2C)n[nH]1)=C\c1ccccc1,x,x,x,x,4133,-3,-12
CC(C)[C@H](NC(=O)c1ccco1)C(=O)OCC(=O)Nc1ccccc1OC(F)F,-2,0,5.3,3,4887,-10,-3
CCn1cnc2c1c(=O)n(CC(=O)NCc1ccccc1)c(=O)n2Cc1ccccc1,16,6,1.8,5,3275,-16,-1
COc1ccc(Cl)cc1NC(=O)COC(=O)C1CC1,9,5,8.4,8,2982,-10,x
CNc1nc(C)cc(C)c1S(=O)(=O)c1ccc(Cl)cc1,11,-1,8.0,-4,3661,-16,4
COc1cc(CNc2cccc(F)c2)cc(Br)c1O,6,0,-0.1,1,8225,-4,-4
COc1cc(C=NNC(=O)CCn2cnc(-c3ccccc3)c2-c2ccccc2)ccc1O,-1,15,6.1,-2,x,x,x
COc1ccc(OC)c(CC(NC(C)=O)C(=O)NC2CCN(C(=O)c3cccc(C)c3)CC2)c1 (configuration not stated),-15,-5,1.6,4,5582,-13,-16
COc1ccc(CN(Cc2nc3ccccc3c(=O)[nH]2)C(=O)NC2CCCCC2)cc1,x,x,4.2,8,3736,-14,3
O=C(COc1ccc(Cl)cc1Br)N1CCN(S(=O)(=O)c2ccccc2)CC1,x,x,x,x,6274,-13,-1
COc1ccc(/C=C2/C(=O)N(c3nc4ccccc4s3)N=C2CSc2ccc(Cl)cc2)cc1,-8,11,39,27,1912,-8,-5
CCOC(=O)N1CCN(C(=O)CCc2ccc(S(=O)(=O)NCC(C)C)cc2)CC1,12,6,5.8,8,5871,-31,5
O=C(CN1CCN(C(=O)N2CCOCC2)CC1)Nc1ccc(Br)cc1,x,x,0.5,5,3738,-15,2
COc1ccc(CCN(C)C(=O)CSc2nnc(C3CC3)n2N)cc1OC,2,5,-1.9,0,5443,-33,-13
C#CCOCCOCCOCCNc1nc(N2CCN(C(=O)CCCCCCCCCCNC(=O)Cn3cc(CC(C)O)nn3)CC2)nc(N2CCN(C(=O)CCCCCCCCCCNC(=O)C(CO)n3cc(CCCSC)nn3)CC2)n1 (configuration not stated),-6,11,6.1,5,x,x,x
Cc1cc(C(=O)OCC(=O)NCCc2ccc(S(N)(=O)=O)cc2)c2ccccc2n1,2,0,2.6,1,8425,-27,x
CC(Sc1nc2cc([N+](=O)[O-])ccc2n1-c1cccc(C(F)(F)F)c1)C(=O)NC(N)=O (configuration not stated),6,-1,2.9,-13,7886,1,-13
CC(NC(=O)COC(=O)Cc1ccc(-c2ccccc2)cc1)c1ccccc1 (configuration not stated),18,3,-1.5,1,2159,-11,4
CCOc1cccc(C(=O)Nc2ccc3c(c2)OCCO3)c1,4,3,0.2,8,3400,-25,-1
CCN(CC)S(=O)(=O)c1ccc(NC2c3ccccc3C(=O)N2CCN2CCOCC2)cc1 (configuration not stated),1,6,0.6,-5,6444,-12,9
CCc1ccc(CN2CCSCC2)cc1,13,11,3.0,10,3725,-24,9
COC(=O)C1=C(O)CSC1=Nc1ccc(C)cc1,13,23,5.1,5,2597,-12,1
CC(CCc1ccc(O)cc1)NCc1ccc(Cl)cc1Cl (configuration not stated),-4,1,3.4,4,x,1,7
C1=C(c2ccco2)N2CCN=C2S1,-1,-6,6.1,9,3121,-12,-1
O=C(COC(=O)COc1ccc(Cl)cc1)Nc1ccc(F)c([N+](=O)[O-])c1,x,x,6.5,-2,1978,-6,-4
Cn1c(CC(=O)Nc2ccccc2F)nnc1SCC(=O)Nc1nncs1,0,-3,0.9,3,4587,-24,-15
CCOC(=O)C1=C(COC(=O)COc2ccc(C(=O)CC)cc2)NC(=O)NC1C (configuration not stated),2,-4,7.0,6,u,-9,-9
O=C(CN(c1ccc(Cl)cc1)S(=O)(=O)c1ccccc1)N/N=C/c1ccco1,x,x,x,x,u,2,-1
O=C1N(Cc2ccccc2F)c2ccccc2C12OCCCO2,17,13,6.0,15,20831*,-67,-17
O=C(NCCOc1ccccc1)c1ccc2c(c1)S(=O)(=O)c1cc(Cl)ccc1C2=O,6,4,18,23,3904,-3,x
CCOc1ccc(-n2ccnc2SCC(=O)Nc2nnc(C)s2)cc1,x,x,-4.0,3,3029,-9,-7

# (cont.)
SMILES,Mtb hypoxia inh,Mtb hypoxia inh growth,Sa RN4220 lethal,ugtP null kill,Bead autofluor,PrP 5UTR inh,BJeLR lethal
CN(C(=O)Cn1nc(C(=O)O)c2ccccc2c1=O)C1CCCCC1,0,4,1.6,-1,4508,-13,x
CCCCc1nnc(NC(=O)c2ccc(OCc3c(C)noc3C)cc2)s1,-9,5,-1.4,-2,5521,-16,x
CNC(=S)Nc1ccc(-c2nc3ccc(C)cc3s2)cc1,37*,60*,-8.0,-1,3839,-5,3
COc1ccc(-c2nc(-c3ccccc3OC)no2)cc1OC,-4,16,1.8,-12,5533,-60,x
Cc1cc(C=c2sc3nc4ccccc4n3c2=O)c(C)n1-c1ccccn1,8,14,7.9,-8,x,x,x
COc1ccc(-c2oc(=O)c3cc(OC)c(OC)cc3c2C#C[C@]2(O)CCC3C4CCc5cc(OC)ccc5C4CC[C@@]32C)cc1 (some centres not stated),5,3,6.1,1,x,x,x
CC(=O)Oc1ccc(Cl)cc1/C=C/c1cc(OC(C)=O)c2ccccc2n1,5,6,30,-13,x,x,-5
C=C1c2cc(C)c(C)cc2NC(=O)N1c1ccccc1,11,11,2.1,-7,4887,-11,-1
COC(=O)C1C2C=CC(C3CC23)C1C(=O)OCC(=O)c1ccccc1 (configuration not stated),6,11,3.0,8,4368,-15,-3
CC1CN(C(C)CO)C(=O)c2cc(NC(=O)NC3CCCCC3)ccc2OC1CN(C)S(C)(=O)=O (configuration not stated),7&5,-4&12,4.3&1.7,4&-4,x,x,x
COCCN(C(=O)CNC(=O)c1ccco1)C(C(=O)NC1CCCC1)c1ccccc1 (configuration not stated),-10,-6,1.5,9,5911,-16,-1

# Screening data (PubChem BioAssay)
